Source: PubChem
UCH37 DUB inh: human UCH37 deubiquitinating enzyme inhibition; Q9Y5K5; AID 588478; 330,000 compounds, 0.33% hits; inhibition, % (no concentration beside the values); purified proteasome/UCH37, Ub-AMC cleavage fluorescence;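 active means mean of two replicates above 20%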;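 further: 0% = compound-free wells with enzyme and 100% = wells lacking proteasome; stock transfer was 100 nL into about 20 µL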
Target sequence (Q9Y5K5 whole entry, looked up): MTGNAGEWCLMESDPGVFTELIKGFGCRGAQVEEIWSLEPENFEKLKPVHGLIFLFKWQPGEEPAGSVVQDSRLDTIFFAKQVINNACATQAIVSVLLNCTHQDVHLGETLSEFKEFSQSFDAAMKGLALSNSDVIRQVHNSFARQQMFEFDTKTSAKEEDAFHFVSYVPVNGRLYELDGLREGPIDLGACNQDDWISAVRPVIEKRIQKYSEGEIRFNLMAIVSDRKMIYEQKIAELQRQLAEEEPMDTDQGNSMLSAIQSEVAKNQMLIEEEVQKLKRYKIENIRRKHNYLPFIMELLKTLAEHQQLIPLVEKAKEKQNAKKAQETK
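Material: Human UCH37 enzyme supplied as purified proteasome complex | Schedule: 30 min compound-proteasome preincubation then 25 min substrate reaction, room temperature | Detection: AMC fluorescence from Ub-AMC cleavage, excitation 355 nm, emission 460 nm | Benchmarks: Wells without proteasome as full block, compound-free enzyme plus substrate as uninhibited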
Ecoli growth: blocks Escherichia coli growth; OD600 absorbance (concentration not given with the values); 330,000 compounds, 0.21% hits; OD600, 23 h; hits give low values;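 active means OD600 absorbance below the run mean of sample wells minus 3.6 SD, in any replicate, cut at about 0.56 in these data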;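 further: stock transfer was 300 nL into about 60 µL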
* hit, by the source's call.

The first 5 compounds, ahead of the listing:
SMILES	UCH37 DUB inh	Ecoli growth
CCCCCCC1C(=NNC(=O)c2ccccc2)CCC1C(=O)OC (stereo unspecified)	3.1	0.691
O=C(Cn1c2ccccc2c(=O)c2ccccc21)NN=Cc1cc([N+](=O)[O-])ccc1N1CCCCCC1	7.8	0.772
Oc1ccc(Br)cc1C=NN1CCCCC1	1.7	0.661
O=C(CNc1ccccc1)NN=Cc1cc([N+](=O)[O-])ccc1N1CCCC1	0.7	0.674
COc1ccccc1N1CCN(N=Cc2c(C)nn(-c3ccccc3)c2C)CC1	6.3	0.68

The listing, repeating the preview:
SMILES	UCH37 DUB inh	Ecoli growth
CCCCCCC1C(=NNC(=O)c2ccccc2)CCC1C(=O)OC (stereo unspecified)	3.1	0.691
O=C(Cn1c2ccccc2c(=O)c2ccccc21)NN=Cc1cc([N+](=O)[O-])ccc1N1CCCCCC1	7.8	0.772
Oc1ccc(Br)cc1C=NN1CCCCC1	1.7	0.661
O=C(CNc1ccccc1)NN=Cc1cc([N+](=O)[O-])ccc1N1CCCC1	0.7	0.674
COc1ccccc1N1CCN(N=Cc2c(C)nn(-c3ccccc3)c2C)CC1	6.3	0.68
Oc1c(Cl)cc(Cl)cc1C=Nc1nccs1	-0.2	0.638
COc1ccc(C(=O)Nc2ccc(C(C)=NNC(=O)c3ccccc3O)cc2)cc1OC	3.5	0.625
COc1cc(C=NN2C(=O)c3ccccc3C2=O)ccc1O	4.3	0.608
COc1cc(C=NNc2cc(C)nc(NS(=O)(=O)c3ccc(C)cc3)n2)ccc1O	-3.4	0.734
O=C(NN=Cc1ccc(F)cc1)c1ccncc1	3.7	0.648
Cn1nccc1C(=O)Oc1cccc(C=NNC(=O)c2ccccc2O)c1	-1.0	0.667
O=C(NN=Cc1cc([N+](=O)[O-])ccc1O)c1cccc(NC(=O)c2cccc(Cl)c2)c1	5.1	0.681
Cc1cccc(N(CC(=O)NN=Cc2ccc(C(=O)O)cc2)S(=O)(=O)c2ccccc2)c1C	3.7	0.666
CNC(=S)NN=Cc1cn(Cc2c(F)cccc2Cl)c2ccccc12	8.4	0.686
O=c1c2c3c(sc2ncn1N=Cc1ccc([N+](=O)[O-])o1)CCCC3	-0.3	0.531
Cc1cc(Cl)ccc1OCC(=O)NN=Cc1ccc(OC2OC(CO)C(O)C(O)C2O)cc1 (stereo unspecified)	3.6	0.739
O=C(NN=Cc1ccco1)c1cccc(N2CCCC2=O)c1	3.0	0.653
CN1C(=O)COc2ccc(C(=O)c3oc4ccccc4c3-c3cnc4c(c3)COc3ccccc3-4)cc21	-2.3	0.702
CCOc1cc(C=NO)ccc1OCc1ccccc1F	6.1	0.72
COC(=O)NN=Cc1cn(Cc2ccccc2Cl)c2ccccc12	1.8	0.683
NC(=S)NN=Cc1c2ccccc2cc2ccccc12	-11.5	0.661
CC1=CC(=O)C(C(C)C)=CC1=NOS(=O)(=O)c1ccccc1	3.8	0.617
Cc1cc(C)nc(SCC(=O)NN=Cc2cccn2-c2cccc(C(F)(F)F)c2)n1	5.0	0.667
COc1cc(C=Nn2c(C)nnc2C)cc(OC)c1OC	3.4	0.778
O=C(NCc1ccccn1)c1ccc(C=NO)nc1	-1.4	0.712
Nc1nnc(CC(=O)NN=Cc2ccc(-c3cccc(Cl)c3)o2)s1	-12.2	0.659
NC(=O)NN=Cc1ccccc1OCC(=O)NCc1ccccc1	0.9	0.668
CC(=NNC(=O)c1ccccc1)c1ccc(-n2ccnc2)cc1	1.3	0.681
CN1CCc2c(sc(N=Cc3cccs3)c2C(N)=O)C1	-27.5	0.676
C=C(C)CNC(=S)NN=Cc1ccc2c(c1)OCO2	6.3	0.692
Fc1ccc(C=NN2CCOCC2)c(F)c1	2.0	0.696
NC(=O)Cn1cc(C=NNS(=O)(=O)c2cccc([N+](=O)[O-])c2)c2ccccc21	2.7	0.711
O=C(C[n+]1ccccc1)NN=Cc1ccccc1F	4.2	0.722
COCc1c(C(=O)NN=Cc2ccccn2)nnn1-c1nonc1N	-2.2	0.667
CC(=NNC(=O)Cn1c(-c2ccccn2)nc2ccccc21)c1cccc(O)c1	0.6	0.676
O=C(NN=Cc1ccccn1)c1ccc(NC(=O)c2ccc(F)cc2)cc1	2.1	0.652
O=C(NN=Cc1ccccn1)c1cccnc1	3.7	0.637
COc1ccc(C=NNC(=O)c2ccncc2)c(OC)c1	12.9	0.654
S=c1[nH]nc(-c2ccccn2)n1N=Cc1ccc(-c2ccccc2Cl)o1	7.9	0.631
O=C(Cc1csc(N2CCOCC2)n1)NN=Cc1ccc(O)c(O)c1O	6.2	0.731
O=C(O)c1cccc(NN=CC2=C(Cl)c3cc(Cl)ccc3SC2)c1	9.9	0.615
CC(/C=C/c1ccco1)=NNC(=O)c1cccc(Cl)c1	12.0	0.638
Cc1ccsc1C=Nn1cnnc1	5.2	0.673
Cc1nn(CC(C#N)=NO)c(C)[n+]1N	1.6	0.63
O=C(NN=Cc1cnc2ccccc2n1)c1cccc(F)c1	2.1	0.647
CC(=NNC(=S)Nc1ccccc1)C1Cc2ccccc2C(=O)O1 (stereo unspecified)	4.2	0.725
Cc1ccc(C(=O)NN=Cc2ccoc2)cc1C	5.1	0.6
CC(=NNc1ccccc1[N+](=O)[O-])c1ccc(C)c([N+](=O)[O-])c1	7.8	0.677
COc1ccc2nc(N=Cc3c(C)[nH]n(-c4ccc(C)cc4C)c3=O)sc2c1	2.8	0.703
COc1ccc(C=NNC(=O)C[n+]2ccccc2)c(OC)c1	3.1	0.665
CC(=O)Oc1ccc2c(=O)c(C=Nc3cc(=O)[nH]c(=S)[nH]3)coc2c1	13.1	0.629
Cc1ccc(C(=O)NN=Cc2cc(C)n(-c3ccc(Br)cc3)c2C)cc1[N+](=O)[O-]	0.1	0.707
CCC1SC(C)CC(=NNC(N)=O)C1C (stereo unspecified)	1.7	0.673
Cc1ccsc1C=NNC(=O)C(N)=O	8.7	0.693
COc1ccnc(-n2cccc2C=NO)c1C#N	2.9	0.64
CC(CCC(=O)O)=NNc1ccc([N+](=O)[O-])cc1[N+](=O)[O-]	7.5	0.679
CC(=NNC(=O)CSc1nc2ccccc2o1)c1ccc(O)cc1	1.9	0.65
O=C(NN=Cc1ccncc1)c1cccc([N+](=O)[O-])c1	-0.6	0.717
O=C(NN=C1CCc2ccccc21)C1CC1	3.2	0.708
NC(=NO)c1nc(N2CCCC2)nc(N2CCCC2)n1	4.8	0.679

The list continues:
SMILES	UCH37 DUB inh	Ecoli growth
CCCC(=NNC(=O)C1CC1)c1ccc(Br)cc1	-2.5	0.69
CC(=NNC(=O)c1sc(NS(=O)(=O)c2ccccc2)nc1C)c1ccccc1	4.7	0.673
Nc1nc(-c2cccnc2)nn1C(=O)c1ccco1	1.3	0.656
O=C(NN=Cc1ccc([N+](=O)[O-])o1)c1cc(-c2cccc(Br)c2)nc2ccccc12	4.3	0.751
CCC(=NNC(=O)C1CC1)c1cccc(Cl)c1	2.8	0.683
CCOc1cc(C=Nn2c(C)nnc2C)ccc1O	3.1	0.657
COc1ccc(C=NNC(=O)C(C)n2cnc3ccccc3c2=O)cc1OC (stereo unspecified)	-2.8	0.67
C[N+](C)(C)CCNC(=O)c1cc[n+](Cc2ccccc2)c(C=NO)c1	0.5	0.709
O=C(CCC(=O)Nc1ccc(F)cc1)NN=Cc1ccc(Br)cc1	2.9	0.676
CC(CCc1oc2ccc(Br)cc2c1-c1ccc(C)o1)=NO	1.2	0.629
COc1ccc(S(=O)(=O)N(CC(=O)NN=Cc2cccs2)c2ccc(C)cc2)cc1OC	9.4	0.772
COc1cccc(C=NNC(=O)c2nc(-c3ccccc3)cc(-c3ccccc3)n2)c1	-26.7	0.768

Random excerpt: 2 records from the list, in no set order.
SMILES	UCH37 DUB inh	Ecoli growth
C[N+](C)(C)CCNC(=O)c1cc[n+](Cc2ccccc2)c(C=NO)c1	0.5	0.709
Nc1nc(-c2cccnc2)nn1C(=O)c1ccco1	1.3	0.656

Continuation.
SMILES	UCH37 DUB inh	Ecoli growth
O=C(CON=Cc1ccc(Cl)cc1Cl)NNC(=O)c1cccc(Cl)c1	-1.2	0.713
Nc1ccc(C(=O)NN=Cc2cn(Cc3ccc(F)cc3)c3ccccc23)cc1	-10.2	0.685
CCOC(=O)/C(C=Nc1cc(C)nn1-c1ccccc1)=C(\C)O	7.8	0.703
CCOC(=O)c1c(NC(=O)C(=O)NN=C(C)c2ccc(OC)cc2)sc2c1CCCCC2	-174.2	0.746
CC(=NNC(=O)COc1cccc(Br)c1)c1ccc2c(c1)OCCO2	1.0	0.712
CC(=NNC(=O)C(O)c1ccccc1)c1ccc(Cl)s1 (stereo unspecified)	3.5	0.721
COc1cc(C=NS(=O)(=O)c2ccccc2)cc(OC)c1O	8.0	0.711
CCOC(=O)C=c1sc(=C(C#N)C(=O)OCC)n(-c2ccccc2)c1=O	3.1	0.745
O=[N+]([O-])c1ccc(C=NNc2ccnc3cc(Cl)ccc23)o1	5.7	0.593
CCCCCOc1ccc(C=NNC(=O)c2nnn(-c3nonc3N)c2CN2CCCCCC2)cc1	2.1	0.734
COc1ccccc1NN=Cc1ccc2c(c1)OCO2	0.6	0.701
CC(=NNc1ccccc1[N+](=O)[O-])c1ccc(N2CCOCC2)cc1	3.5	0.722

In the list so far, three have a cyano group.
SMILES	UCH37 DUB inh	Ecoli growth
Cc1nn(CC(C#N)=NO)c(C)[n+]1N	1.6	0.63
COc1ccnc(-n2cccc2C=NO)c1C#N	2.9	0.64
CCOC(=O)C=c1sc(=C(C#N)C(=O)OCC)n(-c2ccccc2)c1=O	3.1	0.745

Compound profiles, from the list above. Values in the order: UCH37 DUB inh, Ecoli growth
CC(=NNC(=O)C(O)c1ccccc1)c1ccc(Cl)s1 (stereo unspecified) is entered as 3.5, 0.721
CC(=NNc1ccccc1[N+](=O)[O-])c1ccc(N2CCOCC2)cc1 is entered as 3.5, 0.722

Additional records follow.
SMILES	UCH37 DUB inh	Ecoli growth
Brc1ccc(C=Nc2nc3ccccc3n2CCN2CCOCC2)cc1	1.2	0.65
CCC(O)(CC)C(=O)NN=Cc1cc(Br)cc(Br)c1O	-21.7	0.646
O=C(NN=Cc1ccccn1)c1cccc([N+](=O)[O-])c1	3.0	0.683
Nc1nnnn1N=Cc1cccs1	3.4	0.636
COC(=O)C=c1sc2nc3ccccc3n2c1=O	6.4	0.697
CC(=NNS(=O)(=O)c1ccc(Br)cc1)c1ccc(NC(=O)c2ccc(C)o2)cc1	1.9	0.767
Cc1ccsc1C=NNC(=O)c1n[nH]c2c1CCC2	10.1	0.691
COc1cc(C=NNC(=O)CNc2n[nH]c(=O)[nH]c2=O)ccc1OCc1ccccc1	2.3	0.67
O=C(NN=Cc1ccccn1)c1cccc(S(=O)(=O)N2CCCC2)c1	2.3	0.676
O=C(NN=Cc1cccc(C(F)(F)F)c1)C1CCN(c2ncc(C(F)(F)F)cc2Cl)CC1	-1.0	0.727
COC(=O)C(=NNc1ccccc1OC)N1CCCc2ccccc21	2.8	0.682
Cc1ccc(C=NN2CCN(c3ccccn3)CC2)o1	5.9	0.691
Brc1ccc(NN=C(N=Nc2nn[nH]n2)c2ccccc2)cc1	22.0*	0.598
NC(=O)C[n+]1ccc(C=NO)cc1	7.4	0.73
CCOC(=O)CCC(=NNC(N)=O)c1ccc(OC)c(Cl)c1	0.3	0.613
COc1ccc(C=NNC(=O)c2ccc(NC(=O)c3cccc([N+](=O)[O-])c3)cc2)c(C(=O)O)c1OC	9.1	0.681
N#CCCn1cc(C=NNC(=O)c2ccncc2)c(-c2ccc(F)cc2)n1	3.7	0.705
CCOc1cc(C=NNC(N)=O)cc(Br)c1OC(C)C	2.4	0.648
Cc1nnc(NN=CC2CC=CCC2)[nH]c1=O (stereo unspecified)	3.9	0.685
CC(=NNC(=O)CSc1nc2ccccc2c(=O)n1-c1ccccc1C)c1cccs1	7.0	0.689
Cc1ccccc1-n1c(C)cc(C=NNC(=O)c2ccc(CN3CCOCC3)cc2)c1C	-3.2	0.639
CC(=NN=C(N)N)c1ccc(Cl)cc1	6.2	0.646
COc1ccc(C(=O)NCC(=O)NN=C(C)Cc2ccccc2)cc1	3.8	0.712
COc1cc(C=NNC(N)=S)cc(Br)c1OCc1ccccc1F	1.1	0.666
COc1ccc(Cl)cc1C(=O)NN=Cc1ccc(N2CCOCC2)cc1	-22.1	0.676
COc1ccccc1NS(=O)(=O)c1ccc(NN=C(C)C(C)C)c([N+](=O)[O-])c1	3.4	0.73
Cc1ccc2nc(C)c(=NO)c(C)nc2c1	0.1	0.651
CCOC(=O)NN=Cc1cccc(OC)c1	6.2	0.626
CC1CCc2c(sc(N=CN(C)C)c2C#N)C1 (stereo unspecified)	7.5	0.648
CCCCCOCC1CC(CC(C)=NNc2nc(-c3ccccc3)cs2)C(=O)O1 (stereo unspecified)	-0.2	0.731
O=C(NN=Cc1ccco1)C12CC3CC(CC(C3)C1)C2	-0.3	0.68
CC(=NNC(=O)c1ccc(Br)cc1)c1ccccc1	-1.7	0.69
COc1ccc(-c2cc(C(=O)NN=Cc3sccc3C)c3ccccc3n2)c(OC)c1	-11.3	0.711
COC(=O)C1CC(=NNS(=O)(=O)c2ccc(C)cc2)c2ccccc2C1 (stereo unspecified)	5.3	0.697
Cc1ccc(NCC(=O)NN=Cc2ccncc2)cc1	2.3	0.659
C/C(C=NNC(=O)c1ccncc1)=C\c1ccc(C(C)C)cc1	-140.7	0.724
N#CC1=C(N)n2c(sc(=Cc3ccco3)c2=O)=C(C#N)C1c1ccco1 (stereo unspecified)	15.3	0.708
CC(C)(C)c1cc(C(=O)NN=Cc2ccc(F)cc2)n(-c2ccccc2)n1	1.4	0.69
Cc1nn(-c2ccccc2)c(C)c1C=NNc1nc2ccccc2[nH]1	1.2	0.609

An excerpt; count on the stated rates, not on these rows.
